Screens (PubChem BioAssay)
HPGD inh – HPGD (human) dehydrogenase inhibition. Potency, µM, inactives show at the top dose activity change, negative = inhibition, usual class: inhibitors. actives 4.3% (n = 150,000). P15428. purified HPGD, NADH fluorescence kinetic, PGE2 substrate; active = well fitted inhibition curve with a large enough effect (not every such curve was filed as active); inconclusive = small, poorly fitted or top-dose-only effect, or another doubt; inactive = no such curve, though single readings can be large or run the other way;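 further: top concentration of the series not given in the record; plate controls included wells without enzyme; inactives centre near -10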
Target sequence (P15428 whole entry, looked up): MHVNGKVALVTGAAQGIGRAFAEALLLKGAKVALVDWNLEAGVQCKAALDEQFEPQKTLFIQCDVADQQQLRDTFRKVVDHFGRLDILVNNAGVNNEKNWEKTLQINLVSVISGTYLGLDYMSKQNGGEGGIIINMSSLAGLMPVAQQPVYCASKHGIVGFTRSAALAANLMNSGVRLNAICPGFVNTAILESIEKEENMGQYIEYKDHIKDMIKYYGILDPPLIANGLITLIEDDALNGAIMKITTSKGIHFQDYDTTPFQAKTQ
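20 nM HPGD preincubated 15 min at room temperature with compound in 50 mM Tris-HCl pH 8, 0.01% Tween 20. Started with 1 mM NAD+ and 30 uM prostaglandin E2; NADH fluorescence (360/450 nm) read 5 times over 30-s intervals, last minus first.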
Starred values were filed as active, the others as inactive. On the % scale 0 is the no-effect control and ±100 the full control effect; potency means the concentration at half of the fitted maximal effect. Not all compounds are listed. The share of hits here may be higher or lower than overall.

Screening CCOC(=O)C1CCN(C(=O)COc2ccc(Cl)cc2C)CC1 returned HPGD inh -9%.
`CC1CCN(CCCn2c(=S)[nH]c3ccccc3c2=O)CC1` gave HPGD inh -12%.
CCn1c(=O)c(C(=O)NCCNCCO)c(O)c2ccccc21 was read as HPGD inh -7%.
For Cc1ccc(S(=O)(=O)c2cc3c(=O)n4cccc(C)c4nc3n(CC3CCCO3)c2=N)cc1 (configuration not stated) the results were HPGD inh inconclusive.
`Clc1ccc(OCc2cc(-c3ccccc3)no2)cc1Cl` gave HPGD inh -8%.
For CCSc1nc2c(c(-c3ccc(C)o3)c1C#N)CCCC2 the results were HPGD inh inconclusive.
Screening CCOc1ccccc1CNC(=O)C1CCCN(c2nc3ccccc3o2)C1 (configuration not stated) returned HPGD inh -5%.
For Cc1ccc(C(=O)COC(=O)c2cccs2)cc1 the results were HPGD inh 28µM*.
Screening Cc1cc(C)n(C(=O)CNC(=O)CCc2ccccc2)n1 returned HPGD inh 16µM*.
Screening Cc1cc(C(=O)NCCN2C(=O)S/C(=C\c3cccs3)C2=O)ccc1[N+](=O)[O-] returned HPGD inh -11%.
For CCNC(=S)Nc1cccc([N+](=O)[O-])c1 the results were HPGD inh 1%.
For O=C(c1cc(C(F)(F)F)cc(C(F)(F)F)c1)N1CCC2(CCN(Cc3nccs3)CC2)CC1 the results were HPGD inh -1%.
For COc1ccc(Nc2nc(N)nc(CSC(=S)N3CCC(C)CC3)n2)cc1 the results were HPGD inh -23%.
CCOC(=O)c1ccc(NC(=O)CN2C(=O)CSC2=O)cc1 was read as HPGD inh -14%.
`COc1ccc(N2CCN(C(=O)COc3ccc4ccccc4c3)CC2)cc1` gave HPGD inh 2%.
For Cc1nc2ccccc2cc1O the results were HPGD inh inconclusive.
Screening CC(=O)OCC(=O)[C@H]1CC[C@H]2[C@@H]3CC=C4C[C@@H](O)CC[C@]4(C)[C@H]3CC[C@]12C returned HPGD inh -10%.
CCOc1cc(CNn2nnnc2N)cc(Cl)c1OCC(=O)NC(C)(C)C was read as HPGD inh -11%.
COc1ccccc1CN1CC[C@@]2(CCCN(S(=O)(=O)c3ccccc3)C2)C1 was read as HPGD inh -8%.
For N#Cc1cc(Cl)c(N2CCOCC2)cc1C#N the results were HPGD inh -6%.

The final six compounds of the section above are carried over, then new ones follow:
`COc1ccc(N2CCN(C(=O)COc3ccc4ccccc4c3)CC2)cc1` gave HPGD inh 2%.
For Cc1nc2ccccc2cc1O the results were HPGD inh inconclusive.
Screening CC(=O)OCC(=O)[C@H]1CC[C@H]2[C@@H]3CC=C4C[C@@H](O)CC[C@]4(C)[C@H]3CC[C@]12C returned HPGD inh -10%.
CCOc1cc(CNn2nnnc2N)cc(Cl)c1OCC(=O)NC(C)(C)C was read as HPGD inh -11%.
COc1ccccc1CN1CC[C@@]2(CCCN(S(=O)(=O)c3ccccc3)C2)C1 was read as HPGD inh -8%.
For N#Cc1cc(Cl)c(N2CCOCC2)cc1C#N the results were HPGD inh -6%.
Screening CN(C)c1ccc(NC(=O)CC(NCc2ccccn2)C(=O)O)cc1 (configuration not stated) returned HPGD inh 1%.
`COc1ccc(C2=NOC(C(=O)O)C2)cc1` (configuration not stated) gave HPGD inh -3%.
Screening COC(=O)C1=C(C)N=C2SC(C)C(=O)N2C1/C=C/c1ccccc1 (configuration not stated) returned HPGD inh -1%.
Screening CC(=O)NCCOc1nc(N(C)C)nc(N(C)C)n1 returned HPGD inh -2%.
Screening CSc1nsc(SCC(=O)NC2CCCCC2)n1 returned HPGD inh -30%.
Cc1occc1-c1nnc(SCC(=O)N(C)CCC#N)n1N was read as HPGD inh 0%.
Screening COc1ccc(N2CCN(C(CNC(=O)c3ccc4c(c3)OCO4)c3cccnc3)CC2)cc1 (configuration not stated) returned HPGD inh -4%.
COc1cccc(C2=NOC(C(=O)NC3CCCCC3)C2)c1 (configuration not stated) was read as HPGD inh inconclusive.
NC(=O)CCCC1=NS(=O)(=O)c2ccccc2N1 was read as HPGD inh 1%.
COc1ccc(-c2nc3ccccc3c(=O)n2NC(=O)c2cccnc2Cl)cc1OC was read as HPGD inh -10%.
`CC(=O)C1=C(C)NC(SCc2cccc([N+](=O)[O-])c2)=C(C#N)C1c1ccco1` (configuration not stated) gave HPGD inh -6%.
Screening CC1CCCC(C)N1C(=O)COC(=O)CCc1nc2ccccc2c(=O)[nH]1 (configuration not stated) returned HPGD inh -4%.
O=C(NCCCn1ccnc1)C(=O)NCC(c1cccnc1)N1CCN(c2ccc(F)cc2)CC1 (configuration not stated) was read as HPGD inh -7%.
`COC(=O)C1=CN(C2CC2)C=C(C(=O)OC)C1c1ccc(C(=O)OC)cc1` gave HPGD inh inconclusive.
`CCOC(=O)CNC(=O)COc1ccc(Cl)cc1Br` gave HPGD inh -10%.
COc1ccc(NC(=O)c2cccc(S(=O)(=O)Nc3ccc(Br)cc3)c2)cn1 was read as HPGD inh -11%.
`COc1ccc2c3c([nH]c2c1)[C@H]1C[C@@H]2[C@@H](C[C@@H](O)[C@H](OC)[C@H]2C(=O)O)CN1CC3` gave HPGD inh -8%.
O=C1CC(SCCO)C(=O)N1c1ccc(Oc2ccccc2)cc1 (configuration not stated) was read as HPGD inh -15%.
Cn1c(CC(=O)Nc2ccccc2)nnc1SCC(=O)c1ccccc1 was read as HPGD inh inconclusive.
CCOCCCNC(=O)C(NC(=O)c1ccc(=O)[nH]c1)c1ccccc1 (configuration not stated) was read as HPGD inh -8%.

Grouped by structure, the entries above containing a cyano group.
For CCSc1nc2c(c(-c3ccc(C)o3)c1C#N)CCCC2 the results were HPGD inh inconclusive.
For N#Cc1cc(Cl)c(N2CCOCC2)cc1C#N the results were HPGD inh -6%.
Cc1occc1-c1nnc(SCC(=O)N(C)CCC#N)n1N was read as HPGD inh 0%.
`CC(=O)C1=C(C)NC(SCc2cccc([N+](=O)[O-])c2)=C(C#N)C1c1ccco1` (configuration not stated) gave HPGD inh -6%.

(listing goes on)
Screening COC(=O)c1ccc(C)c(NS(=O)(=O)c2ccc(NC(C)=O)cc2)c1 returned HPGD inh -6%.
`Cc1nc(-c2ccc(C(=O)O)cc2)cs1` gave HPGD inh -9%.
O=c1cc(-c2ccco2)nc(-c2cccs2)o1 was read as HPGD inh -18%.
For COC(=O)c1ccccc1NC(=O)Oc1ccc(C(C)C)cc1 the results were HPGD inh -12%.
N#Cc1nc(-c2ccccc2F)oc1NCCN1CCOCC1 was read as HPGD inh inconclusive.
Screening Cc1cc(C)n(-c2nnc3n2N=C(c2ccccc2)CS3)n1 returned HPGD inh -16%.
`Nc1nnc(CSCc2ccc(Cl)cc2Cl)s1` gave HPGD inh -15%.
Screening Cc1cc(C)nc(-n2nc(C)cc2NC(=O)CN2CCC(C)CC2)n1 returned HPGD inh 1%.
O=C(/C=C/Nc1ccccc1Br)c1ccccn1 was read as HPGD inh -22%.
For CCOCCCNC(=S)N1CCN(C(=O)C(=O)Nc2ccc(C(=O)OC)cc2)CC1 the results were HPGD inh 1%.
Screening O=C(CN1CCN(c2ncc(C(F)(F)F)cc2Cl)CC1)NCCNc1ncc(C(F)(F)F)cc1Cl returned HPGD inh -16%.
Screening C/C(=N\NC(=O)c1cccc(F)c1)c1ccc(Br)s1 returned HPGD inh -5%.
Screening Cc1cnc(-c2nnc(N(C)C(=O)C3CCCO3)s2)cn1 (configuration not stated) returned HPGD inh -27%.
Screening Cc1noc(C)c1COC(=O)c1cc2c3ccccc3n(C)c2s1 returned HPGD inh inconclusive.
Cc1cc(C)n(C(=O)C(C(=O)c2ccccc2)C(C)C)n1 (configuration not stated) was read as HPGD inh -14%.
For CCOC(=O)CNC(=O)c1cc(-c2ccc3c(c2)OCCO3)oc1C the results were HPGD inh -24%.
For CN1C(=O)CC(Sc2ccccc2C(=O)O)C1=O (configuration not stated) the results were HPGD inh -5%.
For COc1ccc(-c2noc(CCC(=O)Nc3nc4ccccc4s3)n2)cc1 the results were HPGD inh -7%.
COc1cc(-c2noc(-c3cccs3)n2)cc(OC)c1OC was read as HPGD inh -11%.
`Cc1ccc(CNC(=O)C2CCN(S(=O)(=O)N3CCOCC3)CC2)cc1` gave HPGD inh -14%.
O=C1Nc2ccccc2OC1CC(=O)N1CCOCC1 (configuration not stated) was read as HPGD inh 2%.
CCn1c(NCc2cccs2)nc2ccccc21 was read as HPGD inh -11%.
Cc1ccc(-c2c(C(=O)N3CCOCC3)oc(=O)c3ccccc23)cc1 was read as HPGD inh -12%.
`COCCNS(=O)(=O)c1ccc(SC)cc1` gave HPGD inh -16%.
For CC(=O)N(c1ccccc1)c1nc(C)cc(C)c1C#N the results were HPGD inh 0%.
CC1(C)Cc2c(sc3[nH]c(=S)n(Cc4ccccc4)c(=O)c23)CO1 was read as HPGD inh -22%.
Screening CCOc1ccc(NCc2nnc(SCC(=O)Nc3cc(C)on3)n2-c2ccccc2OC)cc1 returned HPGD inh 3%.
CCCCN(CC)C(=O)c1cccc(Cl)c1 was read as HPGD inh inconclusive.
O=S(=O)(CCc1nc2ccccc2[nH]1)c1ccc(Br)cc1 was read as HPGD inh -6%.
For COc1ccc(-c2csc(/C(C#N)=C/Nc3ccc4c(c3)OCCO4)n2)cc1 the results were HPGD inh -2%.
O=C(CSc1nc2ncccc2[nH]1)c1cccc([N+](=O)[O-])c1 was read as HPGD inh inconclusive.
Screening c1ccc(NC2=Nc3ccccc3CS2)cc1 returned HPGD inh -12%.
Cc1c(O)c(=O)c2ccccc2n1C was read as HPGD inh inconclusive.
O=C(NC(NNc1ccc([N+](=O)[O-])cc1)(C(F)(F)F)C(F)(F)F)c1ccccc1Cl was read as HPGD inh 14µM*.
Screening CCc1ccc(NC(=O)CCNS(=O)(=O)c2cccc3nonc23)cc1 returned HPGD inh 0%.
For C/C(=N\NC(=O)c1ccccc1C)c1cccc([N+](=O)[O-])c1 the results were HPGD inh -4%.
`Cc1ccc2nc(NC(=O)CSc3nc4c(c(=O)n3C)SC(C)C4)sc2c1` (configuration not stated) gave HPGD inh inconclusive.
`CCOC(=O)c1cc2c(ccn2C)n1CC(=O)N1CCCC(C)C1` (configuration not stated) gave HPGD inh -15%.
COc1cccc(C(=O)NCCN2CCOCC2)c1 was read as HPGD inh 3%.
`Cc1cc(Oc2cc(N)cc([N+](=O)[O-])c2)ccc1Cl` gave HPGD inh -10%.

4 compounds from above, arranged by SMILES length, descending.
For Cc1ccc(S(=O)(=O)c2cc3c(=O)n4cccc(C)c4nc3n(CC3CCCO3)c2=N)cc1 (configuration not stated) the results were HPGD inh inconclusive.
For COc1ccc(-c2csc(/C(C#N)=C/Nc3ccc4c(c3)OCCO4)n2)cc1 the results were HPGD inh -2%.
For C/C(=N\NC(=O)c1ccccc1C)c1cccc([N+](=O)[O-])c1 the results were HPGD inh -4%.
COc1cccc(C2=NOC(C(=O)NC3CCCCC3)C2)c1 (configuration not stated) was read as HPGD inh inconclusive.

(listing goes on)
`CC(C)CC(=O)N=C1SC2CS(=O)(=O)CC2N1CCc1ccccc1` (configuration not stated) gave HPGD inh -11%.
`COC(=O)C1C(c2ccc(Cl)cc2)NC(c2ccc(Cl)cc2)C(C(=O)OC)S1(=O)=O` (configuration not stated) gave HPGD inh -7%.
Screening Cc1cc(C)cc(NC(=O)CN(Cc2ccccc2)S(C)(=O)=O)c1 returned HPGD inh -12%.
`CCOC(=O)Cc1csc(NC(=O)NC2(C(F)(F)F)Oc3cc(Cl)c(Cl)cc3O2)n1` gave HPGD inh -16%.
CCCCc1nc2ccccc2c(NC(=O)CNC(C)(C)C)c1CCC was read as HPGD inh 10%.
`O=C(N/C(=C/c1cccs1)c1nc2ccccc2[nH]1)c1ccccc1` gave HPGD inh -22%.
C=CCn1c(C)c(C(C)=O)c(N2CCN(c3ccccc3)CC2)nc1=S was read as HPGD inh -23%.
`Cc1cccc(Nc2nnc(SC/C(O)=C(\C#N)c3nc4ccccc4[nH]3)s2)c1` gave HPGD inh inconclusive.
Screening Cc1ccc(C(=O)NCC(C)(C)O)cc1 returned HPGD inh -15%.
`COc1cccc(N2CC(O)=C(c3nc4ccccc4c(=O)[nH]3)C2=N)c1` gave HPGD inh inconclusive.
`O=C(COC(=O)/C=C/c1cccc(Cl)c1)NCCc1ccc(Cl)cc1Cl` gave HPGD inh -8%.
For Cc1ccccc1C(=O)N1CCC(C(=O)Nc2ccc(F)cc2)CC1 the results were HPGD inh -17%.
For CCOC(=O)N1CCC(NC(=O)c2cc3c(C)nc4ccccc4c3o2)CC1 the results were HPGD inh inconclusive.
Screening C[C@@]1(C(NC(=O)Cc2ccc(C(F)(F)F)cc2)c2ccc(-c3ccccc3)cc2)C[C@H]1C1CCCCC1 (some centres not stated) returned HPGD inh 1%.
CNC(=O)c1ccc(-c2sc3nc(N4CCOCC4)c4c(c3c2N)CC(C)(C)OC4)o1 was read as HPGD inh inconclusive.
For COC(=O)CC1[C@@]2(C)C[C@]34OC5(C)OC6(C7CC(=O)OC(c8ccoc8)[C@]7(C)CCC6(O5)[C@]13C)C(OC(C)=O)[C@]4(OC(C)=O)C2OC(C)=O (some centres not stated) the results were HPGD inh -2%.
For O=c1c2[nH]c3ccc(F)cc3c2ncn1CCCN1CCOCC1 the results were HPGD inh -30%.
Cc1ccc(C)c(NC(=O)CCn2nc(C)cc2C)c1 was read as HPGD inh 0%.
Screening CC(=O)c1sc(N/N=C\c2ccc(Br)cc2)nc1C returned HPGD inh -5%.
`N=C(N)c1ccc(/C=C\c2ccc(C(=N)N)cc2)cc1` gave HPGD inh inconclusive.

2 compounds drawn at random from the list so far, as already listed:
`CCOC(=O)Cc1csc(NC(=O)NC2(C(F)(F)F)Oc3cc(Cl)c(Cl)cc3O2)n1` gave HPGD inh -16%.
CNC(=O)c1ccc(-c2sc3nc(N4CCOCC4)c4c(c3c2N)CC(C)(C)OC4)o1 was read as HPGD inh inconclusive.
